Assay outcomes from PubChem.
NS1 inh: influenza NS1 inhibition; S. cerevisiae slowed by influenza A NS1, growth recovery by OD600; Potency, µM (doses to about 46.1 µM), for inactives: top-dose activity, positive = more growth; actives 0.4% (n = 270,000); note: actives are rising curves; nearly all actives have a fitted effect of over 50% in size
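Compounds were scored for reversing the slow growth caused by influenza A NS1 in S. cerevisiae, measured by optical density at 600 nm. Assay medium contained 2% galactose at pH 6.0; NS1-free yeast of the same strain were the positive control.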
Cruzain noTriton: inhibitors of Trypanosoma cruzi cruzain without detergent | actives 2.3% (n = 200,000) | Potency, µM, for inactives: max response, negative = inhibition, most hits filed as inhibitors | P25779 | purified cruzain, Z-FR-AMC fluorescence, no detergent; active = well fitted curve in the direction sought with a large enough effect; inconclusive = small, poorly fitted or top-dose-only effect, or another doubt; inactive = no such curve, though single readings can be large; an effect the other way counts as inactive or inconclusive;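 note: plate controls were enzyme without inhibitor for no effect and buffer without enzyme for full effect; nearly all actives have a fitted effect of over 40% in size; top concentration of the series not given in the record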
Target sequence (P25779 123-467 limits assumed): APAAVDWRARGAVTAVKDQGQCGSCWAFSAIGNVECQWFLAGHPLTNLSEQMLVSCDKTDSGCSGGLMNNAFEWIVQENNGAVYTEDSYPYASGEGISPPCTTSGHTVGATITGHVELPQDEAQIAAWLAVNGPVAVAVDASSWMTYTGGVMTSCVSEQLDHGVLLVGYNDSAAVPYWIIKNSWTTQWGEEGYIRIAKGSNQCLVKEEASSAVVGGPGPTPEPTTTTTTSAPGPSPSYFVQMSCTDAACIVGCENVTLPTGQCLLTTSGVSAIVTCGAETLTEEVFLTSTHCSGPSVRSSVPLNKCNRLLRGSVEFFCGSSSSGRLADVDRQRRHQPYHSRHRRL
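Detergent-free condition (0.00005% Triton X-100) in acetate buffer pH 5.5 with DTT. 1.5 nM enzyme and compound were pre-mixed 15 min, then 2 uM Z-FR-AMC substrate added; reaction progress from fluorescence change between first and third reads (60 s).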
Cruzain Triton: cruzain (T. cruzi) inhibition with detergent. purified cruzain, Z-FR-AMC fluorescence, 0.01% Triton. actives 0.43% (n = 200,000). P25779. Potency, µM, for inactives: max response, negative = inhibition, actives largely listed as inhibitors; active = well fitted curve in the direction sought with a large enough effect; inconclusive = small, poorly fitted or top-dose-only effect, or another doubt; inactive = no such curve, though single readings can be large; an effect the other way counts as inactive or inconclusive;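 note: plate controls were neutral wells for no effect and buffer without enzyme for full effect; nearly all actives have a fitted effect of over 40% in size; top concentration of the series not given in the record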
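Cysteine protease activity tested under reducing, mildly acidic conditions (100 mM sodium acetate pH 5.5, 5 mM DTT) plus 0.01% Triton X-100. Cruzain 1.5 nM; substrate Z-FR-AMC 2 uM; 15 min compound preincubation at room temperature.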
StopGo reporter: lowers the luciferase signal of an FMDV 2A StopGo reporter; human cells with a luciferase reporter of 2A StopGo recoding; control for the full effect not named in the record; Potency, µM (highest dose often 57.9 µM), for inactives: at the top dose signal change, negative = less light; actives 1.2% (n = 410,000); AID 1159524; active = well fitted falling curve with a large enough effect; inconclusive = small, poorly fitted or top-dose-only effect; inactive = no such curve, though single readings can be large or run the other way; tested in HEK293T cells; note: % is set by controls: 0 for no effect and ±100 for the full control effect; nearly all actives have a fitted effect of over 45% in size; luciferase light after 4 h
SARS PLpro yeast: inhibitors of SARS-CoV papain-like protease in yeast; actives 0.19% (n = 330,000); Potency, µM (highest dose often 32.9 µM), inactives show top-dose activity, positive = growth rescue; S. cerevisiae expressing SARS-CoV PLpro, growth rescue; control for the full effect not named in the record; note: 0% is about no effect; nearly all actives have a fitted effect of over 55% in size; growth read by luminescence after 48 h
RE007 growth inh: less growth of the S. pombe RE007 Vpr strain. S. pombe RE007 Vpr strain, BacTiter-Glo ATP luminescence, 24 h; control for the full effect not named in the record. Potency, µM (doses to about 92.2 µM), for inactives: top-dose activity change, negative = less growth. actives 0.21% (n = 360,000). AID 651644; active = well fitted falling curve with a large enough effect; inconclusive = small, poorly fitted or top-dose-only effect; inactive = no such curve, though single readings can be large or run the other way;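 note: % is set by controls: 0 for no effect and ±100 for the full control effect; nearly all actives have a fitted effect of over 50% in size; the assay follows cell death caused by Vpr and the record does not say whether a fall means rescue or toxicity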
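Fission yeast RE007 carrying one integrated HIV-1 vpr copy, seeded at OD 0.01 in PMG+AL medium with 23 nL pinned compound. Grown 24 h at 30 degrees; viability read by BacTiter-Glo luminescence after 5 min.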
Lassa entry inh: Lassa virus entry inhibition | Lassa virus pseudotype entry inhibition, cell reporter; control for the full effect not named in the record | Potency, µM (series often up to 37.9 µM), for the others: top-dose activity change, negative = inhibition, most hits filed as inhibitors | actives 1.2% (n = 300,000) | AID 540256; active means well fitted inhibition curve with a large enough effect; inconclusive means small, poorly fitted or top-dose-only effect, or effect the other way; inactive means flat fitted curve, though single readings scatter; tested in HEK293 cells; note: % is set by controls: 0 for no effect and ±100 for the full control effect; nearly all actives have a fitted effect of over 50% in size; luciferase read-out
Marburg entry inh: blocks Marburg virus binding to or entry into cells. Marburg virus pseudotyped entry inhibition, cell reporter; control for the full effect not named in the record; about a third of the inactives were read at about 46 µM. Potency, µM (doses to about 37.8 µM), for inactives: top-dose activity change, negative = inhibition, most hits filed as inhibitors. actives 1.8% (n = 300,000); active = well fitted inhibition curve with a large enough effect; inconclusive = small, poorly fitted or top-dose-only effect, or effect the other way; inactive = flat fitted curve, though single readings scatter; tested in HEK293 cells; about a fifth of its hits are not listed in these tables; note: % is set by controls: 0 for no effect and ±100 for the full control effect; luciferase read-out
* hit, by the source's call; & = joins results of further samples; [ ] = remark or other dose. Unless noted, calls come from the whole dose curve; as a rule, active means well fitted rising curve with a large enough effect; inconclusive means small, poorly fitted or top-dose-only effect; inactive means no such curve, though single readings can be large or run the other way. Potency is the fitted concentration of half-maximal effect.

How did CCOc1cc(C(=O)Nc2ncn[nH]2)cc(OCC)c1OCC do in these assays?
StopGo reporter: -9.3%; SARS PLpro yeast: 0.0%; RE007 growth inh: 34.2%; Lassa entry inh: inconclusive; Marburg entry inh: 2.2%[46.1 µM]

What do the screens show for `CC1CCN(C(=O)C(=O)Nc2sc3c(c2C(=O)O)CC(C)(C)OC3)CC1`?
NS1 inh: 18.0%; StopGo reporter: 0.2%; SARS PLpro yeast: inconclusive; RE007 growth inh: 10.7%

Results for COc1ccc(-c2c(=O)n(OCc3ccccc3[N+](=O)[O-])c3ccccc3[n+]2[O-])c(OC)c1 ?
NS1 inh: -4.7%; StopGo reporter: -23.1%; SARS PLpro yeast: 18.9%; RE007 growth inh: -19.0%; Lassa entry inh: 4.0%; Marburg entry inh: inconclusive

How did COc1cccc(OCc2cc(C(=O)NC3CCOCC3)no2)c1 do in these assays?
NS1 inh: 5.6%; StopGo reporter: 35.7%[activator]; SARS PLpro yeast: -3.3%; RE007 growth inh: 4.5%

Results for Cc1ccc(Nc2nc(C3CC3)cs2)cc1 ?
NS1 inh: -39.1%; Cruzain noTriton: -26.2%; Cruzain Triton: -4.2%; SARS PLpro yeast: -8.0%; Lassa entry inh: -6.3%; Marburg entry inh: -19.7%

How did Cc1cc(=O)[nH]c2nnc(SCC(=O)Nc3ccc(OC(F)(F)F)cc3)n12 do in these assays?
Cruzain noTriton: -3.7%; Cruzain Triton: -0.8%; StopGo reporter: 35.5%[activator]; Lassa entry inh: 22.9%[46.1 µM]

What do the screens show for `COc1ccc2oc(C(=O)OC(C)C(=O)N3CCC(C)CC3)c(C)c2c1` (stereo not given)?
StopGo reporter: -20.9%; SARS PLpro yeast: 0.3%; RE007 growth inh: -13.1%; Lassa entry inh: inconclusive; Marburg entry inh: 6.7%

Results for O=C(C1CC1)N1CCN=C1SCc1cccc(F)c1 ?
NS1 inh: 5.2%; Cruzain noTriton: -1.5%; Cruzain Triton: 0.4%; StopGo reporter: -25.3%; SARS PLpro yeast: 4.6%; RE007 growth inh: -3.8%; Marburg entry inh: 1.5%

What do the screens show for `O=C(NNC(=S)NC(=O)c1cccc([N+](=O)[O-])c1)c1ccc(O)cc1`?
NS1 inh: -2.8%; StopGo reporter: -10.3%; SARS PLpro yeast: -0.5%; RE007 growth inh: 2.3%; Lassa entry inh: 19.7%; Marburg entry inh: 15.1%

Results for CCN(CC)CCOC(=O)c1ccc(NC(=O)CSc2cc(=O)n(CC)c3ccccc23)cc1 ?
Cruzain noTriton: 29.9%; Cruzain Triton: -7.3%; StopGo reporter: -17.1%; Lassa entry inh: 5.3%[46.1 µM]; Marburg entry inh: inconclusive

What do the screens show for `CCOc1ccc(C(=O)Nc2nnc(S(=O)(=O)Nc3ccccc3C)s2)cc1`?
NS1 inh: 9.4%; StopGo reporter: -4.0%; SARS PLpro yeast: 4.4%; RE007 growth inh: -9.3%

How did COCCn1c(SCC(=O)N2CCc3ccccc3C2)nc2cc(Cl)ccc2c1=O do in these assays?
NS1 inh: 14.7%; Cruzain noTriton: inconclusive; Cruzain Triton: -6.5%; StopGo reporter: inconclusive; SARS PLpro yeast: -9.8%; RE007 growth inh: 19.6%; Lassa entry inh: -27.8%; Marburg entry inh: 15.6%

How did CC(C)(C)OC(=O)N1CCC(c2cc(=O)n3[nH]c(-c4ccc(Cl)cc4)cc3n2)CC1 do in these assays?
NS1 inh: 6.1%; Cruzain noTriton: 0.2%; Cruzain Triton: 0.1%; StopGo reporter: -29.5%; SARS PLpro yeast: -2.3%; RE007 growth inh: -3.2%; Marburg entry inh: -0.4%

What do the screens show for `Cc1cc(C)cc(-n2c(C)cc(C(=O)CSc3nnnn3C)c2C)c1`?
NS1 inh: 2.3%; Cruzain noTriton: -6.2%; Cruzain Triton: -7.7%; StopGo reporter: -18.0%; SARS PLpro yeast: -2.2%; RE007 growth inh: -7.1%; Lassa entry inh: inconclusive; Marburg entry inh: inconclusive

How did C#CCNC(=O)C1=C[C@@H](c2ccc(Br)cc2)C[C@@H](OCc2ccc(CO)cc2)O1 do in these assays?
NS1 inh: -0.8%; StopGo reporter: 11.4%; SARS PLpro yeast: -2.7%; RE007 growth inh: 6.6%

What do the screens show for `Oc1c(C(c2ccccc2)N2CCN(Cc3ccccc3)CC2)sc2ncnn12` (stereo not given)?
NS1 inh: inconclusive; Cruzain noTriton: 11.0%; Cruzain Triton: -0.3%; StopGo reporter: -25.5%; SARS PLpro yeast: -0.2%; RE007 growth inh: 7.2%

How did CN=C(NC#N)SCC(=O)c1ccc(Cl)cc1Cl do in these assays?
NS1 inh: -18.3%; Cruzain noTriton: 2.1%; Cruzain Triton: -5.6%; StopGo reporter: 8.5%; SARS PLpro yeast: -4.8%; RE007 growth inh: 2.6%; Lassa entry inh: -27.8%; Marburg entry inh: -20.5%

Results for Cc1ccc2nc(/C(C#N)=N/O)[nH]c2c1 ?
NS1 inh: 2.9%; Cruzain noTriton: -11.3%; Cruzain Triton: -1.7%; StopGo reporter: 3.7%; SARS PLpro yeast: 7.9%; RE007 growth inh: 10.9%; Lassa entry inh: -7.4%; Marburg entry inh: -1.1%

How did O=C(O)CCCN1C(=O)/C(=C\c2ccco2)SC1=S do in these assays?
NS1 inh: -4.6%; StopGo reporter: inconclusive; SARS PLpro yeast: -0.1%; RE007 growth inh: -8.0%; Lassa entry inh: inconclusive; Marburg entry inh: inconclusive

Results for COc1cccc2c(=O)c(C(=O)O)c[nH]c12 ?
NS1 inh: -4.7%; Cruzain noTriton: -16.2%; Cruzain Triton: -4.1%; SARS PLpro yeast: 16.0%; RE007 growth inh: -1.3%; Lassa entry inh: 18.4%; Marburg entry inh: 6.5%

How did Cc1ccc(C(=O)c2ccc(CC(=O)O)n2C)cc1 do in these assays?
Cruzain noTriton: -9.4%&-10.9%; Cruzain Triton: -5.6%&-0.9%; StopGo reporter: -0.1%&12.2%; RE007 growth inh: 11.9%

How did Cc1ccc(/C=N/Nc2ccc(Cl)nn2)cc1 do in these assays?
NS1 inh: -4.7%; StopGo reporter: 56.6%[activator]; SARS PLpro yeast: 0.8%; RE007 growth inh: -16.8%

How did O=C(Cn1c2ccccc2c(=O)c2ccccc21)N/N=C/c1ccc(N2CCCC2)c([N+](=O)[O-])c1 do in these assays?
NS1 inh: 1.6%; Cruzain noTriton: inconclusive; Cruzain Triton: -10.8%; StopGo reporter: 0.0%; SARS PLpro yeast: inconclusive; RE007 growth inh: -0.6%; Lassa entry inh: 18.2%; Marburg entry inh: 11.5%

How did Cc1cc(C)c(NC(=O)Cn2c(=O)n(Cc3ccc4c(c3)OCO4)c(=O)c3ccc(C(=O)NC4CCCCC4)cc32)c(C)c1 do in these assays?
Cruzain noTriton: -10.4%; Cruzain Triton: -0.8%; StopGo reporter: -5.1%; Lassa entry inh: -7.2%[46.1 µM]; Marburg entry inh: 6.5%[46.1 µM]

How did Cc1ccc(C)c(NC(=O)CN(C)C(=O)c2sccc2C)c1 do in these assays?
StopGo reporter: -12.3%; SARS PLpro yeast: 8.3%; RE007 growth inh: 3.7%; Lassa entry inh: -7.4%; Marburg entry inh: 3.0%[46.1 µM]

What do the screens show for `Cc1cc(C)cc(NC(=O)C(=O)NCCc2c[nH]c3ccccc23)c1`?
NS1 inh: -10.2%; StopGo reporter: 0.0%; SARS PLpro yeast: -8.9%; RE007 growth inh: 17.8%

Results for CC1(C)CC2(CC(c3ccccc3)c3ccc(O)cc3O2)NC(=S)N1 (stereo not given) ?
NS1 inh: -0.1%; StopGo reporter: -23.2%; SARS PLpro yeast: 0.5%; RE007 growth inh: 0.8%; Lassa entry inh: inconclusive; Marburg entry inh: inconclusive

Results for CC1(CCc2ccccc2)NC(=O)N(CC(=O)O)C1=O (stereo not given) ?
NS1 inh: -2.3%; StopGo reporter: -7.3%; SARS PLpro yeast: -1.6%; RE007 growth inh: 10.8%

How did Cc1c(NC(=O)c2cccs2)cccc1C(=O)O do in these assays?
NS1 inh: 7.2%; Cruzain noTriton: 2.6%; Cruzain Triton: 3.3%; StopGo reporter: 19.4%; SARS PLpro yeast: -1.3%; RE007 growth inh: 4.6%; Lassa entry inh: inconclusive; Marburg entry inh: 22.7%

How did COc1ccc(Br)cc1-c1nc(CCl)cs1 do in these assays?
NS1 inh: -8.7%; StopGo reporter: -4.1%; SARS PLpro yeast: -0.6%; RE007 growth inh: -2.2%

What do the screens show for `CC(=O)c1ccc(NC(=S)Nc2cccc3cnccc23)cc1`?
NS1 inh: -45.0%; StopGo reporter: -13.2%; SARS PLpro yeast: -5.1%; RE007 growth inh: -28.8%; Lassa entry inh: inconclusive; Marburg entry inh: inconclusive

Results for O=C(Cn1cnc2c(nnn2Cc2ccc(F)cc2)c1=O)NCc1ccco1 ?
NS1 inh: 4.3%; Cruzain noTriton: 4.6%; Cruzain Triton: -1.1%; SARS PLpro yeast: -7.1%; RE007 growth inh: 8.5%; Lassa entry inh: -17.0%; Marburg entry inh: -15.8%

What do the screens show for `Cc1ccc(-n2ncc3c(N4CCN(c5ccc(F)cc5)CC4)ncnc32)c(C)c1`?
NS1 inh: 8.5%; Cruzain noTriton: -5.4%; Cruzain Triton: -3.5%; StopGo reporter: inconclusive; SARS PLpro yeast: 0.8%; RE007 growth inh: 10.6%; Lassa entry inh: inconclusive; Marburg entry inh: inconclusive

What do the screens show for `COc1ccc(N(C(=O)c2cccnc2)S(=O)(=O)c2ccccc2)cc1`?
NS1 inh: -3.6%; StopGo reporter: 15.6%; SARS PLpro yeast: 0.9%; RE007 growth inh: -2.9%; Lassa entry inh: -14.8%; Marburg entry inh: -14.3%[46.1 µM]

What do the screens show for `CC(=O)c1cc(C(C)=O)c(C)nc1C`?
StopGo reporter: -4.0%; SARS PLpro yeast: -4.2%; RE007 growth inh: -5.8%; Lassa entry inh: -3.8%; Marburg entry inh: 7.1%[46.1 µM]
